High-throughput results from PubChem.
NPYLR7 agonist: mosquito NPYLR7 agonism; HEK293T NPYLR7/Galpha15, GCaMP6s calcium fluorescence; activation, % at 10 µM; actives 0.15% (n = 270,000); AID 1259423; in the data active = activation above about 40%;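 also: 0% = vehicle and 100% = reference agonist at the receptor; some compounds past the cut are filed as inactive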
NPYLR7 agonist max-min: further read-out of NPYLR7 agonist, marked with its call; activation, %; measured here: Max-Min RFU normalised activation; some inactives read as strong as hits;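 span of the calcium signal over five minutes; 0% = vehicle and 100% = native peptide agonist; compound fluorescence can raise it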
Starred values were filed as active, the others as inactive; & = joins results of further samples. Not all compounds are listed. The share of hits here may be higher or lower than overall.

SMILES	NPYLR7 agonist	NPYLR7 agonist max-min
COc1ccccc1NC(=O)N(C)C(C)C1CC1 (stereo unspecified)	13	7
CCC(=O)Nc1ccc(Nc2cc(OC(C)C)nc(C)n2)cc1	13	5
CC1=NC2=C(C(=O)CCC2)C(c2ccc([N+](=O)[O-])cc2)C1C#N (stereo unspecified)	15	5
CCN(CC)C1=C(c2c(C)[nH]n(-c3ccc(OC)cc3)c2=O)C(=O)N(c2ccc(OC)cc2OC)C1=O	9&18	11&7
c1ccc(C(Cn2ccnc2)n2ccnc2-c2cnc[nH]2)cc1 (stereo unspecified)	-2	-2
COCCN(Cc1cc(NC(=O)c2ccccc2Cl)ccc1N(C)C)S(C)(=O)=O	4	3
O=C(CSc1nnnn1C1CCCC1)N1N=C(c2cccs2)CC1c1cccs1 (stereo unspecified)	3	2
O=C1CC(Nc2nccc(C3CCCC3)n2)CN1CCc1ccc(F)cc1 (stereo unspecified)	2	-2
Cc1nc(C(F)(F)F)ccc1C(=O)N1CCC1(C)C(=O)NCc1ccc(Cl)cc1 (stereo unspecified)	7	4
CCCOC(OCCC)P(=O)(OCCC)c1ccccc1 (stereo unspecified)	0	7

Of the compounds above, 2 contain an NH in an aromatic ring:
SMILES	NPYLR7 agonist	NPYLR7 agonist max-min
CCN(CC)C1=C(c2c(C)[nH]n(-c3ccc(OC)cc3)c2=O)C(=O)N(c2ccc(OC)cc2OC)C1=O	9&18	11&7
c1ccc(C(Cn2ccnc2)n2ccnc2-c2cnc[nH]2)cc1 (stereo unspecified)	-2	-2

Filtered by structure, the entries above containing fluorine.
SMILES	NPYLR7 agonist	NPYLR7 agonist max-min
O=C1CC(Nc2nccc(C3CCCC3)n2)CN1CCc1ccc(F)cc1 (stereo unspecified)	2	-2
Cc1nc(C(F)(F)F)ccc1C(=O)N1CCC1(C)C(=O)NCc1ccc(Cl)cc1 (stereo unspecified)	7	4

Molecules shown so far containing an aryl methoxy group:
SMILES	NPYLR7 agonist	NPYLR7 agonist max-min
COc1ccccc1NC(=O)N(C)C(C)C1CC1 (stereo unspecified)	13	7
CCN(CC)C1=C(c2c(C)[nH]n(-c3ccc(OC)cc3)c2=O)C(=O)N(c2ccc(OC)cc2OC)C1=O	9&18	11&7

Further records:
SMILES	NPYLR7 agonist	NPYLR7 agonist max-min
O=C(CSc1ccc(C(F)(F)F)cn1)N1CCC2(CC1)C(=O)NCN2c1ccccc1	-7	-14
COCCCNC(=O)C1CCN(C(=O)C23CC4CC(CC(C4)C2)C3)CC1	6	5
CC(=O)Nc1ccc(NC(=O)Cn2c(-n3nc(C)cc3C)nc(-c3ccccc3)cc2=O)cc1	-2	4
c1c[nH]c(-c2csc(Cc3nc4ccccc4s3)n2)c1	5	1
COC(=O)C(CNC(=O)c1ccc(F)cc1)Cc1ccc(F)cc1 (stereo unspecified)	-2	-3
CCS(=O)(=O)c1ccccc1C(=O)Nc1nc2c(OC)ccc(C)c2s1	-8	-8
O=C(c1ccccc1Cl)N(Cc1cccc(OS(=O)(=O)c2ccc(F)cc2)c1)Cc1ccco1	-7	5
CC1=NCCn2cccc21	-8	-10
Cc1nn(C(=O)N2CCOCC2)c(C)c1CN1C(=O)c2ccccc2C1=O	-1	-1
CCN(C(=O)c1cc2cccnc2n(Cc2ccc(Cl)cc2)c1=O)C1CCCCC1	9	4

Brought forward from above: three compounds, then new ones.
SMILES	NPYLR7 agonist	NPYLR7 agonist max-min
CC1=NCCn2cccc21	-8	-10
Cc1nn(C(=O)N2CCOCC2)c(C)c1CN1C(=O)c2ccccc2C1=O	-1	-1
CCN(C(=O)c1cc2cccnc2n(Cc2ccc(Cl)cc2)c1=O)C1CCCCC1	9	4
CS(=O)(=O)CCN1CCC(=O)Nc2cc(F)ccc21	18	16
Cc1ccc(Cl)c2sc(N(CCN3CCOCC3)C(=O)c3ccco3)nc12	8	2
CCN(CC)CCOC(=O)C(Cc1cccc2ccccc12)CC1CCCO1 (stereo unspecified)	-19&-3&-5	-28&-8&-11
O=[N+]([O-])c1cccnc1NCCc1ccc(Cl)cc1	-2	10
COCCCN(CC(=O)N1CCc2sccc2C1c1ccc(OC)cc1)C(=O)C1C[C@H]1c1ccccc1 (stereo partly specified)	14	11
Cn1ncc(N=Cc2ccccc2)c1C(=O)Nc1cccc(Cl)c1	-5	-7
Cc1nc(-c2ccc(Cl)cc2)nc(N2CCN(C(=O)c3ccccc3F)CC2)c1Cc1ccccc1	-5	0
Cn1c(=O)c2c(nc3n2CC(c2ccc(F)cc2)=NN3CC(=O)OCc2ccccc2)n(C)c1=O	7	12
CN(c1ccccc1)S(=O)(=O)c1cc(C(=O)NC(C)(C#N)C2CC2)ccc1Cl (stereo unspecified)	1	1
C=C(CC1CC(=O)N(NC(=O)Cc2c[nH]c3ccccc23)C1=O)CC(C)(C)C (stereo unspecified)	-5	-10
Cc1ccc2nc(CN(Cc3cccs3)C3CC3)cn2c1	10	7
C[C@@]1(O)CCN(C(=O)c2ccc3cc[nH]c3c2)C[C@@H]1Cc1ccccc1	10	8
O=S1(=O)c2ccccc2N=CN1Cc1ccccc1Br	-3	-6
Cc1ccccc1CSc1nc(=O)n2ccccc2n1	5	7
O=CN1N=C(c2ccc(Cl)cc2)CC1(O)C(F)(F)F (stereo unspecified)	-1	-1
COc1cc(-c2ccc3c(c2)COC2(CCN(C(=O)c4cccc(F)c4)CC2)O3)cc(OC)c1OC	5	-8
CNC(=O)c1ccc(/C=C/C(=O)N(C)CCN2CCOCC2)cc1	4	3
CCOc1ccc2nc(NC(=O)/C=C/c3ccccc3)sc2c1	-1	-2
O=C(Cn1nc(-c2ccc(F)cc2)oc1=O)N1CCSc2ccccc21	8	2
Cn1nnnc1NCc1ccc(-c2ccccc2)cc1	11	3
Cc1ccc(SCC(=O)NCc2ccc(S(=O)(=O)N3CCCCC3)cc2)cc1C	10	14
CCc1nnc(NC(=O)c2cccc(N(C)C)c2)s1	6	6
COCCNCc1ccc(-c2ccc(O)cc2)cc1	17	5
CCN(CC)C1CCN(Cc2cc3ccc(Cl)cc3[nH]c2=O)C1 (stereo unspecified)	17	14
CCOC(=O)[C@@H]1[C@H](c2ccccc2)[C@@H](NC(=O)c2ccno2)[C@H]2CCCCN21	15	21
Cc1ccc(C(=O)Nc2ccc(N3CCN(S(C)(=O)=O)CC3)nc2)cc1	17	16
CCCCN(CC(N)=O)C(=O)c1ccc(COC)cc1	-2	-7
CCOC(=O)c1cc(-c2cccc(NC(=O)c3cccc(C#N)c3)c2)n(-c2ccc(F)cc2)n1	27	15
Cn1c(C2C(=N)N(Cc3ccccc3)CC2=O)[n+](C)c2ccccc21 (stereo unspecified)	7	6
O=C(c1ccccc1)N1N=C(c2ccc(Br)cc2)CC1c1ccccc1F (stereo unspecified)	2	5
CCn1c(=NC(=O)Cc2ccc(C)c(C)c2)sc2cc3c(cc21)OCCO3	6	4
N#Cc1c(N)n[nH]c1CCCN	4	10
CC(C)CCNC(=O)CS(=O)(=O)Cc1nc(C2CC2)no1	-4	-5
COC(=O)C(c1ccccc1Cl)N1CCN(C(=O)c2cc3ccc(OC)cc3nc2C)CC1 (stereo unspecified)	-17	-19
CCN1C(=O)N(CCC(C)C)C2(CCN(CCC(C)c3ccccc3)CC2)C1=O (stereo unspecified)	18	4
Cc1cccc(CSc2nc(C)cc(Oc3cccc(F)c3)n2)c1	-8	-7
Cn1c2c(c(=O)n(C)c1=O)C(c1ccncc1)C1=C(N2)c2ccccc2C1=O (stereo unspecified)	2	-2
CCOc1ccc(NC(=O)CSc2nnc(CNC(=O)c3cccs3)n2-c2ccc([N+](=O)[O-])cc2)cc1	-14	-14
O=C1c2ccncc2C(=O)N1c1ccc(Br)cc1	1	1
O=c1oc(/C=C/c2ccco2)nc2ccc(Br)cc12	-12	-16
CCOC(=O)/C=C(\C)n1cc2c(=O)n(C)c(=O)n(C)c2n1	7	6
NC1=NC(c2ccccc2)N(c2ccccc2)C(N)=N1 (stereo unspecified)	-4	-2
CCN(Cc1ccccc1F)C(=O)c1nn(C)c2ccccc12	2	1
Cc1cccc(NC(=O)N(CCN2CCOCC2)CC(=O)N(CCc2ccccc2)Cc2ccco2)c1	0	3
CCc1cccc(NC(=O)CCC(=O)N2CC3C[C@@H]4CC2C[C@H](C3)C4)c1	19	16
CN1CCN(C(=O)CC2CCN(C(=O)Nc3ccccc3N3CCCC3)CC2)CC1	4	-4
COC(=O)c1ccsc1N1CCC(NCc2cccc(O)c2)C1=O (stereo unspecified)	3	2
Cc1ccccc1-n1cccc1CN1CCOCC(CN(C)C)C1 (stereo unspecified)	2	3
O=C(Cn1nc2c(c1NC(=O)Cc1noc3ccccc13)CSC2)NCc1ccccc1	-4	1
C=CC(=O)N1CCN(c2cc(S(=O)(=O)N3CCc4ccccc4C3)ccc2OC)CC1	2	5

Continued:
SMILES	NPYLR7 agonist	NPYLR7 agonist max-min
COc1ccc(-n2c(SCc3ccc(C(=O)Nc4ccc(F)cc4)cc3)nnc2-c2ccc([N+](=O)[O-])cc2)cc1	-5	7
CCn1nc(C)cc1C(=O)N(CCN1CCOCC1)c1nc2c(OC)ccc(C)c2s1	6	13
CC1(Cc2ccc(F)cc2)C(=O)Nc2ccc(S(=O)(=O)NC3CCCCC3)cc21 (stereo unspecified)	-1	3
CN(CCCNC(=O)c1ccccc1-c1ccc(C(F)(F)F)cc1)c1ccccc1	6	-1
Cn1cc(C(=O)NCc2ccc(Cl)cc2)c2[nH]c(=O)n(Cc3ccccc3)c(=O)c21	6	5
Cc1nn(-c2ccc(Cl)cc2)c(C)c1C(=O)NCc1ccccn1	24	30
Cc1sc2nc(SCC(=O)Nc3cccc(O)c3)n(Cc3ccco3)c(=O)c2c1C	-4	-4
Cc1cc(-c2c(-c3ccccc3)ncn2CCNc2ccccc2)n[nH]1	11	9
CCOC(=O)c1ccc(NC(=O)CSc2c(COC)cnc3c2c(=O)n(C)c(=O)n3C)cc1	4	9
CC(C)CC1(CO)CCCN(C(=O)CCC(=O)NC2CCCC2)C1 (stereo unspecified)	0	0
O=C(NCCNc1nc(-c2ccco2)nc2ccccc12)c1ccc(C(F)(F)F)cc1	5	15
CC(=O)Nc1cccc(-c2cc(C)cnc2-n2cnnc2)c1	5	1
Cc1cnn(CCCCCn2c(=O)c(C#N)cn(C3CC3)c2=O)c1	1	-4
CCN(CC)c1ccc(NC2=NS(=O)(=O)C(c3ccc(C)cc3)=C2C)c(C)c1	2	1
CSc1ncccc1C(=O)N1CCCC(N2CCN(c3ccccc3F)CC2)C1 (stereo unspecified)	3	-3
CCCCCN(C(=O)CCCCl)c1c(N)n(CCCC)c(=O)[nH]c1=O	-5	-11
COc1ccc([N+](=O)[O-])cc1NC1=NS(=O)(=O)c2ccccc21	0	0
Cc1cc(=O)[nH]c(-n2nc(-c3cccs3)cc2NC(=O)c2c(F)cccc2Cl)n1	0	-2
CC(C)(Oc1ccc(Cl)cc1)C(=O)Nc1nnc(C2CC2)s1	-3	0
C=c1c(=C2N=C(c3ccc(C)cc3)NO2)oc2ccc(S(=O)(=O)N3CCSCC3)cc12	-2	-4
COc1ccc(-c2cc(C(=O)NC(c3ccccc3)c3ccccc3)n(-c3ccc(C)cc3C)n2)c(OC)c1	-1	9
CCN(CC)C(=O)N1CCC2(CC1)CN(Cc1cccc(C)n1)CCN2C	3	3
O=C(Cc1cccc2ccccc12)Nc1nc2c(Cl)cccc2s1	-5	-7
O=C(CNC1CC1)N1CCc2sccc2C1c1ccccc1 (stereo unspecified)	0	4
CCc1nc2n(n1)C(=O)C(C(c1ccccc1)N1CC(C)CC(C)C1)S2 (stereo unspecified)	-7	-11
CCOc1ccccc1OCCOc1ccccc1OC(C)C	-8	14
COC(=O)c1ccc(COC(CN2CCN(C(=O)c3ccc(Cl)nc3)CC2)c2ccc(Cl)cc2)cc1 (stereo unspecified)	3	-4
CC(C(=O)Nc1ccon1)N1C(=O)c2ccccc2S1(=O)=O (stereo unspecified)	8	4
N#Cc1c2c(c(NCCCN3CCOCC3)n3c1nc1ccccc13)CCCC2	2	4
O=C(c1cc(-c2cccs2)nn1-c1ccc(F)cc1)N1CCN(C/C=C/c2ccccc2)CC1	20	12
COc1cccc(CNC(=O)c2ccc(-c3cccc(C(F)(F)F)c3)s2)c1OC	23	26
COc1ccc(Nc2nc(N3CCCCC3)nc(N)c2[N+](=O)[O-])cc1	1	1
O=[N+]([O-])c1nc(Br)n(Cc2ccccc2F)n1	8	2
COc1ccc(-c2cc(C(N)=O)ccn2)cn1	6	4
CC(C(=O)Nc1cccc(Br)c1)N1CCN(C(=O)c2cccs2)CC1 (stereo unspecified)	-1	-1
O=C1C(=O)N(CCCN2CCOCC2)C(c2cccs2)C1=C(O)c1ccc(F)cc1 (stereo unspecified)	2	0
CNC(=O)c1ccc(CN(C(=O)c2ccc(Cl)o2)C2CC2)cc1	0	-2
O=C(c1cn(CCN2CCCCC2)nn1)N1CC=C(c2ccc(F)cc2)CC1	-1	-4
O=C(Cn1ncn2nc(-c3ccccc3)cc2c1=O)NCc1ccc(F)cc1	-10	-17
CN(Cc1ccc2nsnc2c1)Cc1nc(-c2cnccn2)no1	11	6
C=CCNC(=O)N1CCN(C(C(=O)Nc2ccc(OC)cc2)C2CCCC2)CC1 (stereo unspecified)	10	16
Brc1ccc(C2=CC(c3cccc4ccccc34)C3N=NNC3=N2)cc1 (stereo unspecified)	-2	-3
COC(=O)c1cc(OC)c(OC)cc1NC(=O)C1Oc2ccccc2OC1C (stereo unspecified)	3	4
O=C1/C(=C/c2ccco2)Oc2c1ccc(O)c2CN1CCN(CCO)CC1	56	39
CN(C)c1nc2c(c(=O)[nH]1)CCN(C(=O)CC1NC(=O)c3ccccc31)C2 (stereo unspecified)	3	2
